Screening results: PubChem BioAssay, National Center for Advancing Translational Sciences (NCATS)
miR-21 FLuc – miR-21 reporter, rising signal; HeLa miR-21 FLuc reporter, luciferase, 48 h; Potency, µM (top dose mostly 38.3 µM), without a hit: top-dose reporter change, positive = more light; 340,000 tested, under 10 active; AID 2288; active = well fitted rising curve with a large enough effect; inconclusive = small, poorly fitted or top-dose-only effect; inactive = no such curve, though single readings can be large or run the other way;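 further: % of control where 0% means no effect; miR-21 action dims this reporter so a rising signal means less miR-21 action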
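HeLa cells stably expressing CMV-driven firefly luciferase with a downstream miR-21 binding sequence, endogenously expressing miR-21, were treated with titrations (up to about 40uM final) for 48 hours at 37 degree Celsius. Luciferase luminescence was read after lysis.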
Rango release inh – inhibitors of RanGTP-induced Rango-importin beta complex dissociation; hit rate 0.071% among 340,000; Potency, µM (series often up to 46.1 µM), for the others: top-dose activity change, negative = inhibition; Biochemical FRET Rango-importin beta, RanGTP-induced dissociation; active means falling FRET ratio curve, often poorly fitted, with flat reads before Ran was added; inconclusive means other falling curves, or compound fluorescence or quenching; inactive means flat or rising ratio curve;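 further: potency means the concentration at half of the fitted maximal effect; % of control where 0% means no effect; nearly all actives have a fitted effect of over 45% in size; -100% = wells without RanGTP and RCC1; the record marks most hits as doubtful in a second field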
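Two FRET readings bracket the reaction: one 5 min after compound meets Rango–importin beta, another 45 min after RanGTP-RCC1 (0.6 uM Ran, 0.2 uM RCC1, 2 mM GTP) is added. Only the second defines inhibition.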
GLA inh pH 4.5 – blocks human alpha-galactosidase A at pH 4.5 | P06280 | purified enzyme, 4-MU-alpha-Gal fluorescence, pH 4.5 | activity change, negative = inhibition, % at 105 µM | 230,000 tested, under 10 active; inconclusive = small, poorly fitted or top-dose-only inhibition, or a rising curve; inactive = flat fitted curve, though single readings scatter; no compound was filed as active;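 further: 0% = full activity with enzyme and -100% = basal without enzyme; dose as in the result columns while the protocol names 77 µM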
Rango-impB inh – prevents formation of the Rango-importin beta complex | hit rate 0.031% among 340,000 | AID 540263 | Q14974 | Rango CFP/YFP FRET sensor + importin beta, 45 min | Potency, µM (top dose mostly 92.2 µM), for inactives: top-dose inhibition of complex formation; active = rising FRET ratio curve, often small or poorly fitted; inconclusive = mostly compound fluorescence or quenching in the first reads; inactive = flat curves in all reads;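 further: potency means the concentration at half of the fitted maximal effect; 0% = DMSO wells and 100% = buffer wells lacking importin beta; nearly all actives have a fitted effect of over 15% in size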
Target sequence (Q14974 whole entry, looked up): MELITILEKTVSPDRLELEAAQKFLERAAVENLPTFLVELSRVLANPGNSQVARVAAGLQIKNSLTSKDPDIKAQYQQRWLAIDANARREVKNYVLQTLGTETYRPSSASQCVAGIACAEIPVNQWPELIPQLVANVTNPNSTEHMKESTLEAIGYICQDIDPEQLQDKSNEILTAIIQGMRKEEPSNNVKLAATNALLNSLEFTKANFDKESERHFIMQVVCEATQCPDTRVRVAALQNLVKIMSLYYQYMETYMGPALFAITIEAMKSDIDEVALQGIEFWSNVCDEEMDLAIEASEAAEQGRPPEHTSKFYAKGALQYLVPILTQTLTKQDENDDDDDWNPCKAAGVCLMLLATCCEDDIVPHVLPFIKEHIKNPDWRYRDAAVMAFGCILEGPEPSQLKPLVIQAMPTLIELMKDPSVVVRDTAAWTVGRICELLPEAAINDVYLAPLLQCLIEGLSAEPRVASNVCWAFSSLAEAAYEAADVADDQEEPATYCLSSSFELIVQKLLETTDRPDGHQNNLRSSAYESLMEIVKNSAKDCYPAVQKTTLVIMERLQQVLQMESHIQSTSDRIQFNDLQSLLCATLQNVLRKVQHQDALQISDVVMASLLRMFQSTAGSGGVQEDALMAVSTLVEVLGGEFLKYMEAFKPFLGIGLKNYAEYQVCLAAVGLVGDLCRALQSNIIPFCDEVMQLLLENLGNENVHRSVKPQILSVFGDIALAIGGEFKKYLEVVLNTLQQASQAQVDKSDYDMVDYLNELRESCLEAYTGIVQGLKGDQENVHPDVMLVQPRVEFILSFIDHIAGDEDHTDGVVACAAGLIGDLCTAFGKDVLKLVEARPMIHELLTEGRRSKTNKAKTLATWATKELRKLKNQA
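FRET biosensor Rango (snurportin 1 IBB between N-terminal EYFP and C-terminal Cerulean), 50 nM in PBS/1 mM DTT/0.02% Tween-20/0.1% BSA, preincubated 5 min RT with compound; 0.125 microM importin beta added, 45 min RT, CFP/YFP FRET ratio read.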
Starred values were filed as active, the others as inactive; ? = inconclusive; . = not tested or not shown; & = joins results of further samples. Some of the compounds tested; count on the stated rates, not on these rows.

miR-21 FLuc | Rango release inh | GLA inh pH 4.5 | Rango-impB inh | smiles
. | -4% | . | 0.4% | Cc1noc(C)c1COc1ccc(C(=O)N2CCN(c3ccccc3F)CC2)cc1
2%&-16% | 42% | . | 0.8% | CCCSc1ncc(Cl)c(C(=O)Nc2ccc(S(=O)(=O)Nc3ncccn3)cc2)n1
-6% | 5% | -19 | 0.5% | CC(C)(CO)NCC(O)COc1ccc2c(c1)CCC2 (configuration not stated)
-5% | 3% | 0 | 3.9% | COc1ccc(OC)c(NC(=O)C2CCCC2)c1
-7% | 1% | 2 | 0.5% | CSc1nc(N(C)C)nc(N2CC(=O)N(CCNS(=O)(=O)c3ccc(C)cc3)C2=N)n1
-2% | 10% | -1 | -1.8% | CC(C)S(=O)(=O)N1CCCC(C(=O)c2cccc(Cl)c2)C1 (configuration not stated)
-7% | 7% | 7 | 1.9% | O=C(Oc1cccc([N+](=O)[O-])c1)c1cc(-c2ccccc2)nc2ccccc12
. | -9% | . | -3.2% | CCc1cc(C(=O)N2CCN(c3ncccn3)CC2)sc1C
. | 0% | . | 2.4% | O=C(CCN1C(=O)C2CCCCC2C1=O)Nc1ccc(Br)cc1F (configuration not stated)
-66% | 0% | -4 | -1.0% | O=C(Nc1ccc(-c2nc3ccccc3s2)c(OC(=O)c2ccccc2)c1)c1ccccc1
-1% | 11% | 12 | 2.6% | O=C(CN1C(=O)C2CC=CCC2C1=O)OCc1cc(=O)n2cc(Br)ccc2n1 (configuration not stated)
1% | ? | 5 | 0.0% | C[C@]12CC[C@@H]3c4ccc(O[C@@H]5O[C@H](C(=O)O)[C@@H](O)[C@H](O)[C@H]5O)cc4CC[C@H]3[C@@H]1C[C@@H](O)[C@@H]2O
-10% | -6% | 1 | 0.5% | Cc1nn(Cc2cccc(C(=O)Nc3ccn(Cc4ccccc4F)n3)c2)c(C)c1[N+](=O)[O-]
. | 14% | . | 0.3% | Cc1c(NC(=O)COC(=O)c2ncc(Cl)c(Cl)c2Cl)c(=O)n(-c2ccccc2)n1C
0% | 8% | -16 | 0.2% | COc1ccc(/C=N/n2cnc3c([nH]c4ccc(F)cc43)c2=O)cc1CN1CCCC1
? | 12% | . | 1.7% | C=CCNC(=O)c1ccc(CN(c2ccc(OCC)cc2)S(=O)(=O)c2ccc(C)cc2)cc1
. | 0% | . | -0.7% | O=c1[nH]c(=S)[nH]cc1Oc1ccccc1
0% | -10% | . | -0.7% | CCN(CC)S(=O)(=O)c1ccc2c(c1)nc(SC(C)C(=O)NCC1CCCO1)n2CC (configuration not stated)
0% | 8% | . | -1.4% | O=C(NC1CCCC1)C(c1cccnc1)N(Cc1ccccc1)C(=O)c1csnn1 (configuration not stated)
9% | 16% | 5 | -3.9% | O=c1c2ccccc2nc2n1-c1ccccc1CCC2
-51% | -1% | -11 | 4.4% | CCc1ccc(C(=O)Nc2cc3c(cc2Cl)OCCCO3)cc1
. | -6% | . | 0.8% | O=C(Nc1cccc(S(=O)(=O)N2CCCCC2)c1)C1CCCC1
-40% | 1% | -17 | 1.9% | CCc1ccc(N=c2c([N+](=O)[O-])nn(-c3ccc4c(c3)OCCO4)n2O)cc1
-12% | 0% | . | 0.1% | COc1ccccc1N1C(=O)c2cccc3cccc(c23)C1=O
0% | 3% | 5 | 0.8% | CCOC(=O)c1cc(CC)sc1NC(=O)COC(=O)c1cc[n+]([O-])cc1
-21% | -7% | 0 | 1.5% | N/C(=N\OC(=O)COc1ccc2ccccc2c1)c1ccncc1
-3% | 7% | 4 | 0.0% | COc1cc([N+](=O)[O-])ccc1NC(=O)CSc1nccn1C
-17% | 2% | 9 | 0.6% | COC(=O)c1ccccc1NC(=S)NC(=O)c1ccccc1
. | 8% | . | -0.5% | O=C(COc1ccc(F)cc1Br)NCC1COc2ccccc2O1 (configuration not stated)
-10% | 6% | -9 | 8.5% | O=c1c(Cl)c2oc3ccccc3nc-2c2ccccc12

Ordered by length of the SMILES (largest number first): part of the list above.
miR-21 FLuc | Rango release inh | GLA inh pH 4.5 | Rango-impB inh | smiles
-7% | 1% | 2 | 0.5% | CSc1nc(N(C)C)nc(N2CC(=O)N(CCNS(=O)(=O)c3ccc(C)cc3)C2=N)n1
-66% | 0% | -4 | -1.0% | O=C(Nc1ccc(-c2nc3ccccc3s2)c(OC(=O)c2ccccc2)c1)c1ccccc1
. | -6% | . | 0.8% | O=C(Nc1cccc(S(=O)(=O)N2CCCCC2)c1)C1CCCC1

Returning to the listing with the 5 entries that preceded the break.
miR-21 FLuc | Rango release inh | GLA inh pH 4.5 | Rango-impB inh | smiles
-21% | -7% | 0 | 1.5% | N/C(=N\OC(=O)COc1ccc2ccccc2c1)c1ccncc1
-3% | 7% | 4 | 0.0% | COc1cc([N+](=O)[O-])ccc1NC(=O)CSc1nccn1C
-17% | 2% | 9 | 0.6% | COC(=O)c1ccccc1NC(=S)NC(=O)c1ccccc1
. | 8% | . | -0.5% | O=C(COc1ccc(F)cc1Br)NCC1COc2ccccc2O1 (configuration not stated)
-10% | 6% | -9 | 8.5% | O=c1c(Cl)c2oc3ccccc3nc-2c2ccccc12
1% | -5% | . | 6.5% | C/C(=N/NS(=O)(=O)c1ccc(C)c(C)c1)c1ccncc1
. | 10% | . | ? | O=C(Nc1cc(Cl)ccc1-n1cncn1)c1ccc([N+](=O)[O-])o1
-5% | 1% | 5 | -2.2% | Cc1nccc(-c2cccc(NC(=O)Nc3ccc(Cl)cc3)c2)n1
-5% | 17% | 5 | 2.7% | CCn1cc(S(=O)(=O)CC(=O)Nc2ccc(C)cc2)c2ccccc21
-4% | 32% | 4 | 1.2% | COc1ccccc1CC1(C)NC(=O)N(CC(=O)N2CCc3ccccc3C2)C1=O (configuration not stated)
-5% | -13% | ? | -0.8% | O=C1N=C(N2CCN(c3cccc4ccccc34)CC2)S/C1=C/c1cccs1
-4% | -5% | -19 | -0.1% | Cc1ccc(Cl)cc1N1CCN(CC(=O)Nc2ccc(CN3CCCCC3)cc2)CC1
. | 8% | . | -3.6% | COc1cccc(/C=C/C(=O)c2ccc3c(c2)OCO3)c1OC
-51% | ? | . | -1.7% | Cc1cccc(CNC(=O)c2ccc3nc(Cc4ccccc4F)oc3c2)n1
? | -12% | 1 | -1.8% | C=CC(=O)NC(C)(C)CCN1CCOCC1
. | ? | . | ? | CCCn1c(=NC(=O)c2ccncc2)c(C#N)cc2c(=O)n3cccc(C)c3nc21
-9% | -18% | 4 | ? | CCOC(=O)CCNCC1COc2ccccc2O1 (configuration not stated)
-6% | ? | 3 | ? | CC(CCc1ccccc1)NC(=O)c1ccc(Br)o1 (configuration not stated)
0% | -8% | . | -0.6% | COc1ccccc1C(=O)Nc1ccccc1SC(=O)c1ccccc1OC
-10% | 2% | 0 | -2.9% | COc1ccc(NC(C)=O)cc1NC(=O)c1ccc2ccccc2c1
. | -3% | . | -1.7% | COc1cccc(C(=O)NCCS(=O)(=O)NCCc2ccc(OC)c(OC)c2)c1
-26% | -10% | 7 | 1.1% | CN(C)C(=O)CCCc1nc(-c2ccc(Cl)cc2)no1
-1% | -14% | 2 | -3.2% | Cc1cccc(N2CCN(C(=S)Nc3ccc4nc(N5CCN(C)CC5)cc(C)c4c3)CC2)c1C
. | -7% | . | -3.7% | COC(=O)c1ccccc1Oc1cc(C(F)(F)F)nc(-c2ccccn2)n1
2% | 2% | 3 | 2.2% | COCc1nnc(NS(=O)(=O)c2c(C)cc(C)cc2C)s1
. | 1% | . | ? | O=C(Nc1ccc2c(c1)Cc1cc([N+](=O)[O-])ccc1-2)C(F)(F)F
-5% | 21% | 1 | 0.6% | O=C(O)CSc1nnc(-c2cccnc2)n1Cc1ccccc1
-5% | -10% | -1 | 4.1% | CCOc1ccccc1NC(=O)CC(O)(C(F)(F)F)C(F)(F)F
-6% | -7% | -9 | -1.0% | CCN(Cc1ccccc1)S(=O)(=O)c1ccc(S(=O)(=O)N2CCN(C)CC2)cc1
-7% | -12% | -10 | 4.4% | O=C(CCS(=O)(=O)c1ccc(Cl)cc1)N1CCN(c2ccccc2F)CC1
-9% | 3% | . | -0.7% | CCC(C(=O)NCCCN1CCN(CC)CC1)n1nc(C)n2c(cc3occc32)c1=O (configuration not stated)
-5% | 1% | -10 | 0.0% | CN(C(=O)c1cnc2n(c1=O)CCS2)C1CCCCC1
-6% | -9% | -1 | 5.3% | c1ccc(-c2ccc(C3=Nn4c(nnc4-c4cc(-c5ccccc5)n[nH]4)SC3)cc2)cc1
4% | 8% | 5 | 2.2% | CCCN1Cc2cccc(C(=O)NC(C)c3cccs3)c2C1=O (configuration not stated)
-5% | 14% | 4 | 6.3% | COc1ccc(CNC(=O)C2CCN(c3nccs3)CC2)cc1

Entries shown so far that have a furan ring, fused or not, in the order listed:
miR-21 FLuc | Rango release inh | GLA inh pH 4.5 | Rango-impB inh | smiles
. | 10% | . | ? | O=C(Nc1cc(Cl)ccc1-n1cncn1)c1ccc([N+](=O)[O-])o1
-6% | ? | 3 | ? | CC(CCc1ccccc1)NC(=O)c1ccc(Br)o1 (configuration not stated)
-9% | 3% | . | -0.7% | CCC(C(=O)NCCCN1CCN(CC)CC1)n1nc(C)n2c(cc3occc32)c1=O (configuration not stated)

Other compounds
miR-21 FLuc | Rango release inh | GLA inh pH 4.5 | Rango-impB inh | smiles
5% | 1% | 11 | 0.8% | CCc1[nH]c(=O)[nH]c1C(C)S(=O)(=O)c1ccc(C)cc1 (configuration not stated)
-51% | 0% | -2 | 5.4% | Cc1cc(NC(=O)Nc2ccc(C)c(C)c2)no1
. | -6% | . | -2.9% | CCN(CC)CCNC(=O)c1ccc(NC(=O)c2ccc(S(=O)(=O)N(C)c3ccccc3OC)cc2)cc1
-3% | 0% | 3 | 1.3% | CCC(OC(=O)C1=Cc2ccccc2OC1)C(=O)NC1CCCC1 (configuration not stated)
-1% | -22% | . | -1.2% | CSc1ncc(C(=O)Nc2ccc(C)cc2C)c(C)n1
-5% | -22% | -3 | -5.4% | CCN(CC)S(=O)(=O)c1ccc(NC(=S)NC(=O)C(C)C)cc1
-5% | -8% | 3 | -1.0% | CSCCC(NS(=O)(=O)c1ccc2c(c1)oc(=O)n2C)C(=O)NC1CCCc2ccccc21 (configuration not stated)
-7% | -5% | 2 | -2.7% | CCOC(=O)c1oc2ccccc2c1CN1CCOCC1
-1% | -6% | 5 | 2.5% | Cc1cc2nc(C)n(CCCN)c2cc1C
-1% | -13% | 1 | 3.6% | CC(=O)c1c(C)[nH]c(C(=O)CSc2ccc(F)cc2)c1C
. | 59% | . | -0.6% | O=C(Cn1[nH]c(=O)c2ccccc2c1=O)N1CCN(S(=O)(=O)c2ccc(Cl)cc2)CC1
-11% | 0% | 2 | -2.9% | COc1ccc(S(=O)(=O)N2CCC(C(=O)N3CCCC3)CC2)cc1Cl
. | -12% | . | 6.3% | COc1ccc(N2CC(C(=O)Nc3nc(-c4ccccc4)c(C(C)=O)s3)CC2=O)c(OC)c1 (configuration not stated)
1% | -8% | 5 | 2.9% | CCCCNC1=CC(=O)C(=O)c2ccccc21
3% | -7% | . | -0.6% | Cc1nn(C(C)C(=O)NCc2cccs2)c(=O)c2nn(-c3ccccc3)c(C)c12 (configuration not stated)
0% | -18% | ? | ? | COCCCn1cnc2oc3nc4ccccc4nc3c2c1=O
-5% | -15% | -24 | 1.9% | CON/C=C(\C=Nc1ccccc1)c1ncc(C(F)(F)F)cc1Cl
-6% | 0% | -7 | -1.1% | COc1ccc(OC)c(CCNC(=O)CN2C(=O)CC(C)(C)S(=O)(=O)c3ccccc32)c1
. | -8% | . | -1.0% | C[C@H]1CN=C(N(C)C)N1CC1CCCC1
. | 5% | . | 2.7% | Cc1nc(SCc2nc3ccc(C(F)(F)F)cc3[nH]2)c2oc3ccccc3c2n1
-5% | -10% | 7 | -3.0% | CCCCNC(=O)c1ccccc1C(=O)NCCCC
0% | 11% | 16 | -2.3% | CCOC(=O)N1CCC(NCc2c(C(=O)N(C)Cc3ccccc3)nc3ccccn23)CC1
-3%&-6% | 0% | . | 1.0% | CCc1nn(CC(=O)NCCCN2CCN(CC)CC2)c(=O)c2cc3occc3n12
-7% | -12% | -2 | 5.7% | CSc1nc(-c2ccccc2)c2cc(Cl)ccc2n1
18% | 7% | . | -2.0% | CSc1ccc(CCNC(=O)c2nn(C)c3c2CS(=O)(=O)c2ccccc2-3)cc1
